gsp ag: qHTS for Agonist of gsp, the Etiologic Mutation Responsible for Fibrous Dysplasia/McCune-Albright Syndrome: qHTS; Potency, µM (titrated, usually from 76.9 µM), inactives show at the highest dose activation (cAMP increase), usual class: activators; AID 624287, 2012; actives 0.13% (n = 340,000); gsp mutant cells, cAMP HTRF, 30 min; control for the full effect not named in the record; active = well fitted activation curve with a large enough effect; inconclusive = small, poorly fitted or top-dose-only effect, or another doubt; inactive = no such curve, though single readings can be large or run the other way; cell line not stated here;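 note: phosphodiesterase inhibitor Ro 20-1724 added with compounds to block cAMP breakdown; potency is the fitted concentration of half-maximal effect; nearly all actives have a fitted effect of over 60% in size; about a fifth of the inactives were tested at one dose only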
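Cells stably selected in G418 were plated at 2000/well, grown 16-24 hr, then given compounds in DMSO with the PDE inhibitor […] (300 uM solution added) for 30 min at 37C; cAMP was read by HTRF.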
D2 potentiator: Beta-Arrestin HTS for Positive Allosteric Modulators of the Human D2 Dopamine Receptor: Potentiators; DiscoveRx D2 beta-arrestin cells, luminescence, 90 min; 100% = 57 uM dopamine signal; potentiation, % (no concentration beside the values); actives 0.23% (n = 360,000); active = potentiation of 50% or more; inconclusive = 30% to 50%; inactive = 30% or less;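 note: compound concentration not given in the record; tested on top of an EC20 dose of dopamine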
Target sequence (P14416 whole entry, looked up): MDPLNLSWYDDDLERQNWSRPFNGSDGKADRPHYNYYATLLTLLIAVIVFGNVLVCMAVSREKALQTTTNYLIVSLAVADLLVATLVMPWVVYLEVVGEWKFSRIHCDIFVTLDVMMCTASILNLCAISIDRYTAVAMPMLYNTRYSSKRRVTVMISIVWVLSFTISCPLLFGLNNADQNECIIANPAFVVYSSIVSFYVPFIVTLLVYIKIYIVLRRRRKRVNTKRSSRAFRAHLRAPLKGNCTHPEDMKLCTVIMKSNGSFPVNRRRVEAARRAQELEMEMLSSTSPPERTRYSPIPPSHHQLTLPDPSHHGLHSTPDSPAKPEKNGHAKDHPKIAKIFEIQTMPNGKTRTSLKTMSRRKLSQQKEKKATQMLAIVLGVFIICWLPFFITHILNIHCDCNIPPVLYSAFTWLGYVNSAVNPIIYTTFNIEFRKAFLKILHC
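PathHunter beta-arrestin assay in DiscoveRx D2 cells. Compounds were added with an EC20 of dopamine (50 nM final) for 90 min at 37 deg C. Luminescence was read 1 h after detection reagent, with 57 uM dopamine as the EC100 control.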
gsp antagonist: qHTS for Antagonists of gsp, the Etiologic Mutation Responsible for Fibrous Dysplasia/McCune-Albright Syndrome: qHTS | Potency, µM (highest dose often 76.9 µM), for the others: top-dose activity change, negative = inhibition, actives largely listed as inhibitors | actives 0.4% (n = 340,000) | gsp-mutant cells, cAMP HTRF, 30 min; control for the full effect not named in the record; active = falling curve of any shape with a large fitted effect; inconclusive = falling curve, mostly with a smaller effect; inactive = flat or rising curve; cell line not stated here;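 note: intracellular cAMP measured with PDE inhibitor Ro 20-1724 present during compound exposure; potency is the fitted concentration of half-maximal effect; % is set by controls: 0 for no effect and ±100 for the full control effect; nearly all actives have a fitted effect of over 65% in size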
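Cells, 2000/well, grown 16–24 h in DMEM 10% FBS with 0.5 mg/ml G418, then compounds plus […] (300 uM addition stock), 30 min at 37C. cAMP read by HTRF (cAMP-d2 and anti-cAMP antibody-K in lysis buffer) after 30 min RT.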
CtBP-E1A inh: qHTS Assay for Inhibitors of the CtBP/E1A Interaction; CtBP / adenovirus E1A interaction (AlphaScreen); AlphaScreen GST-E1A/His-CtBP binding, 1536-well; hits give low values; control for the full effect not named in the record; activity change, % (test concentration not listed); actives 0.49% (n = 340,000); AID 651724, 2012; in the data active means activity change below about -65%; inconclusive means about -30% to -65%; inactive means above about -30%; note: % is set by controls: 0 for no effect and ±100 for the full control effect; compound concentration not given in the record
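In 5 uL wells, 23 nL compound meets equimolar GST-E1A and His-CtBP (5X stock 125 nM each) for 2 h, 37 °C. Beads (5X, 50 ug/mL) then 1 h, 37 °C, dark.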
D2 ag: Beta-Arrestin HTS for Positive Allosteric Modulators of the Human D2 Dopamine Receptor: Agonists; DiscoveRx PathHunter D2 beta-arrestin, luminescence, 90 min; 100% = 57 uM dopamine signal; activation, % (concentration not given with the values); actives 0.084% (n = 360,000); in the data active = activation above about 40%; inconclusive = about 15% to 40%; inactive = below about 15%; note: compound concentration not given in the record; the text of the record calls up to 30% inactive
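DiscoveRx PathHunter D2 beta-arrestin cells (2,100/well) attached overnight, then compound-stimulated 90 min at 37 C in HBSS/10 mM HEPES/0.1% Tween-20 buffer; beta-galactosidase complementation read by luminescence after 1 h at ambient temperature. Dopamine 57 uM final (EC100) as control.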
Six1-Eya2 blk: qHTS Assay for Inhibitors of the Six1/Eya2 Interaction | Homeobox protein SIX1 (Homo sapiens) + Protein phosphatase EYA2 (Homo sapiens), … | actives 0.56% (n = 360,000) | AID 651725, 2012 | activity change, % (test concentration not listed) | AlphaScreen GST-Six1/His-Eya2 binding, biochemical; hits give low values; control for the full effect not named in the record; in the data active = activity change below about -65%; inconclusive = about -30% to -65%; inactive = above about -30%; note: % is set by controls: 0 for no effect and ±100 for the full control effect; compound concentration not given in the record
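GST-Six1 + His-Eya2 (5X stock: 250/500 nM); Tris pH 8.0, 300 mM NaCl, 0.05% BSA, 0.02% Tween 20; GSH donor/Ni acceptor beads; 1 h 37 °C dark; AlphaScreen readout.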
* hit, by the source's call; u = inconclusive; x = no result given; & = joins results of further samples; [ ] = remark or other dose.

1: Cc1ccc(C)c(N(C(=O)Cn2nnc3ccccc32)C(C(=O)NCc2ccco2)c2ccncc2)c1 (centres undefined)
2: CN(Cc1ccccc1)C(=O)C1CCCN1S(=O)(=O)c1ccc(Cl)cc1 (centres undefined)
3: COc1ccccc1/C=C/C1(C(=O)NC2CCCC2)CC(=O)N1c1ccc(F)cc1 (centres undefined)
4: O=C(NCc1cccc(Cl)c1)C1Cc2c(-c3ccc(Cl)cc3)ccnc2O1 (centres undefined)
5: O=C(CSc1nc2scc(-c3ccco3)c2c(=O)n1-c1ccccc1)N1CCOCC1
6: Cc1ccccc1-c1cc(C(=O)NCC2CC2)nn1CC1CC(c2cccc([N+](=O)[O-])c2)=NO1 (centres undefined)
Assay by compound | 1 | 2 | 3 | 4 | 5 | 6
gsp antagonist | -3% | -1% | -6% | x | -12% | -15%
gsp ag | 1% | -57%[inhibitor] | 0% | x | u | x
D2 potentiator | -3 | -1 | -17 | -14 | 12&2 | -3
Six1-Eya2 blk | -4 | 3 | -2 | 7 | 6&-1 | -9
D2 ag | 0.0 | 4.2 | -2.5 | 4.3 | -0.9 | 0.1
CtBP-E1A inh | -5 | 8 | -1 | 5 | 6&-1 | -6

7: O=C(O)c1nc(N2CCCCC2)ncc1Cl
8: Cc1csc(NC(=O)c2ccc(-c3ccc(Cl)cc3Cl)o2)n1
9: COc1ccc(CNC[C@H]2O[C@@H](n3cnc4c(N)ncnc43)[C@H](O)[C@@H]2O)cc1OC
10: CCN(CC)S(=O)(=O)c1ccc(S(=O)(=O)N(CC(=O)Nc2ccccc2)CC2CCCO2)cc1 (centres undefined)
11: Cc1cc2ccccn2c1C(=O)c1cccc(S(=O)(=O)N2CCOCC2)c1
12: COCc1nc2ccccc2n1Cc1cccc(C)c1
Assay by compound | 7 | 8 | 9 | 10 | 11 | 12
gsp antagonist | 14% | -5% | 11% | -7% | 32µM* | -21%
gsp ag | -1% | 4%[15.4 µM] | x | 6% | 21% | 24%
D2 potentiator | -22 | -4 | -4 | -2 | 2 | -7
Six1-Eya2 blk | 4 | 8 | 5 | -18 | -7 | 3
D2 ag | 0.2 | -6.0 | -0.6 | -0.8 | 2.4 | -0.9
CtBP-E1A inh | 3 | 2 | 3 | -11 | -4 | -2

13: CC(=O)Nc1cc2c(nc1C)nc(C)n2Cc1ccc(Br)cc1
14: Cc1ccc2nc(-c3ccccc3C)oc(=O)c2c1
15: CCOc1ccccc1NC(=O)CN(c1ccc(C)cc1)S(=O)(=O)c1c(C)n[nH]c1C
16: COc1ccc(S(=O)(=O)N2CCN(C(=O)c3c(-c4ccccc4)noc3C)CC2)cc1
17: CN(c1ccccc1)S(=O)(=O)c1ccc(C(=O)NCc2ccccc2CN2CCCC2)cc1
18: COc1cccc(OC)c1NC(=O)C1CCCN1C(=O)Nc1ccccc1F (centres undefined)
Assay by compound | 13 | 14 | 15 | 16 | 17 | 18
gsp antagonist | -2% | u | -12% | -4% | 8% | 17%
gsp ag | -48%[inhibitor] | -84%[inhibitor] | -13% | -26% | 17%[15.4 µM] | 7%
D2 potentiator | -42 | 2 | -23 | 5 | -37 | -4
Six1-Eya2 blk | 5 | 2 | -12 | 14 | 1 | 0
D2 ag | -5.2 | -4.1 | -5.0 | -0.7 | -1.7 | 5.0
CtBP-E1A inh | 0 | 4 | -4 | 4 | -6 | 4

19: COc1ccc(-c2nc3cnccn3c2Nc2ccc(C)cc2)cc1
20: Cc1cc(Cl)ccc1NNC(=O)c1snnc1C
21: Cc1nc2ccc(C(C(F)(F)F)(C(F)(F)F)C(F)(F)F)cc2[nH]1
22: COc1cc(/C=C/c2nc(-c3ccccc3O)n[nH]2)cc(OC)c1OC
23: COc1cc(NC(=O)c2cc3c(Cl)nc4ccccc4c3s2)cc(OC)c1OC
24: CCOC(=O)N1CCC(N2Cc3cccc(C(=O)NCC4CCN(CC(C)C)C4)c3C2=O)CC1 (centres undefined)
Assay by compound | 19 | 20 | 21 | 22 | 23 | 24
gsp antagonist | -19% | 10% | -11% | -11% | 5% | -3%
gsp ag | -3% | 2%[15.4 µM] | -28% | 8% | -7% | -30%[inhibitor]
D2 potentiator | 4 | 26 | -22 | 27 | 18 | -9
Six1-Eya2 blk | -3 | -6 | 3 | -26 | 1 | -1
D2 ag | 5.8 | 12 | -0.7 | 6.4 | -1.1 | -2.0
CtBP-E1A inh | 0 | -2 | 0 | u | -1 | 1

25: CCN(CC)CC(O)CN1c2ccccc2Sc2ccccc21 (centres undefined)
26: CC(=O)c1ccc2noc(-c3ccccc3)c2c1
27: CCn1c(SCC(=O)Nc2nc(C)c(C)s2)nnc1-c1ccco1
28: COc1ccc(NC(=O)CN2CCCCC2)cc1S(=O)(=O)N1CCCCC1
29: CC(C)C[C@H](NC(=O)c1[nH]cnc1C(=O)N[C@@H](Cc1ccccc1)C(=O)OCc1ccccc1)C(=O)OCc1ccccc1
30: CCCc1cc(=O)n2[nH]c(-c3ccc(Cl)cc3)cc2n1
Assay by compound | 25 | 26 | 27 | 28 | 29 | 30
gsp antagonist | -1% | -21% | -9% | 8% | 8% | -9%
gsp ag | u | -5% | 10% | -6%[15.4 µM] | u | -24%
D2 potentiator | -37 | u | -3 | -43 | -7 | -47
Six1-Eya2 blk | -16 | 11 | -1 | 6 | -4 | -2
D2 ag | 7.0 | u | -2.3 | -2.0 | -8.1 | -1.3
CtBP-E1A inh | -8 | 0 | -3 | 6 | -1 | x

31: O=S(=O)(NCCC1=CCCCC1)c1cccc(Br)c1
32: CCOC(=O)c1[nH]c2ccccc2c1CCCN1C(=O)c2ccccc2C1=O
33: CN(C)Cc1c(C(=O)N/N=C/c2ccc(OCc3c(F)cccc3Cl)cc2)nnn1-c1nonc1N
34: CCOc1ccc(Br)cc1S(=O)(=O)Nc1ccc(S(=O)(=O)Nc2cc(C)on2)cc1
35: COC(=O)C(Cc1ccccc1)NS(=O)(=O)c1ccc(F)cc1Br (centres undefined)
36: CCOC(=O)c1csc(N/N=C2\CCc3ccccc32)n1
Assay by compound | 31 | 32 | 33 | 34 | 35 | 36
gsp antagonist | -12% | -8% | -23% | -1% | 8% | 1%
gsp ag | -9%[15.4 µM] | u | 24% | 5% | x | u
D2 potentiator | -12 | -5 | -25 | -3 | -5 | -7
Six1-Eya2 blk | 28 | -8 | -28 | 1 | 3 | -15
D2 ag | 6.4 | 2.6 | 0.4 | -1.8 | -3.4 | 8.1
CtBP-E1A inh | 4 | -10 | -10 | -1 | -2 | -29

37: CN(CC(=O)NCc1ccc(Cl)cc1)S(=O)(=O)c1cccc2cccnc12
38: CC[C@H](C)[C@@H](CO)NC(=O)[C@H]1O[C@@H](n2ccc(=O)[nH]c2=O)[C@H](O)[C@@H]1O
39: N#C/C(=C\c1ccc(Cl)cc1)c1nc(-c2ccco2)cs1
40: COn1c(=S)[nH]c2ccccc2c1=O
41: Cc1ccc2c(CSc3nnnn3C)cc(=O)oc2c1
42: Cc1noc(C)c1C(=O)Nc1cccc(S(=O)(=O)N2CCOCC2)c1
Assay by compound | 37 | 38 | 39 | 40 | 41 | 42
gsp antagonist | -3% | x | 0% | 3% | -2% | 14%
gsp ag | -14% | x | -78%[inhibitor] | 2% | -3%[15.4 µM] | -16%
D2 potentiator | -2 | 0 | -15 | 1 | 0 | -2
Six1-Eya2 blk | -1 | -2 | 2 | -3 | 0 | 5
D2 ag | -1.3 | -1.5 | -1.9 | 1.2 | -5.6 | -3.7
CtBP-E1A inh | 6 | 0 | 8 | -3 | 14 | -1

43: Cc1ccc(NC(=O)c2ccccc2F)nc1
44: O=C(NC1CCN(Cc2ccccc2Cl)CC1)c1ccccc1
45: Cc1ccc(C(=O)Nc2ccccc2)cc1S(=O)(=O)N1CCN(C)CC1
46: Cc1cc(C)nc(NC(=S)Nc2cccc(Cl)c2Cl)c1
47: O=C(NCc1ccccc1Cl)NC(=O)c1ccccc1
48: C[C@H](NC(=O)c1ncn2c1C(=O)NC[C@H]2C)c1ccccc1
Assay by compound | 43 | 44 | 45 | 46 | 47 | 48
gsp antagonist | 3% | 12% | 2% | 16% | 10% | x
gsp ag | u | 1% | -19% | u | -10% | -47%[inhibitor]
D2 potentiator | 15 | -34 | -2 | 0 | -3 | x
Six1-Eya2 blk | -23 | 6 | -1 | 16 | 8 | -4
D2 ag | -0.5 | 0.8 | 2.2 | -4.9 | 0.8 | -2.1
CtBP-E1A inh | u | -9 | -9 | 0 | 3 | -9

49: COC(=O)CSc1ccc2nnc(-c3ccc(F)cc3)n2n1
50: C=CCn1c(=O)c2ccccc2n2c(=S)[nH]nc12
51: O=C(NCc1ccccn1)C1CCN(C2CCN(Cc3cccc(F)c3)CC2)CC1
52: CCCCCn1ccc(=N)cc1
53: Cc1ccc(Cn2ccc(NC(=O)c3noc4c3CCc3ccccc3-4)n2)cc1
54: CC(Oc1ccc(Cl)cc1Cl)c1ccnc(N)n1 (centres undefined)
Assay by compound | 49 | 50 | 51 | 52 | 53 | 54
gsp antagonist | 5% | -18% | x | -1%[15.4 µM] | 6% | -16%
gsp ag | u | u | -45% | 8% | 18% | 5%[15.4 µM]
D2 potentiator | 4 | -9 | -21 | -4 | 10 | 0
Six1-Eya2 blk | -8 | -8 | -7 | 9 | 10 | 4
D2 ag | -1.6 | 13 | -1.5 | -2.7 | -1.6 | -1.8
CtBP-E1A inh | -11 | -4 | -4 | -4 | 10 | 20

55: COc1ccccc1OCCNC(=O)CN(c1cccc(C)c1)S(=O)(=O)c1ccccc1
56: CC(/C=N/NC(=O)c1cc(-c2ccc(C)s2)[nH]n1)=C\c1ccccc1
57: Cc1cc(Cl)cc(C)c1OCC(=O)NC1CCCCCC1
58: O=C(Nc1nccs1)c1cc([N+](=O)[O-])ccc1Cl
Assay by compound | 55 | 56 | 57 | 58
gsp antagonist | -20% | 21% | -15% | -5%
gsp ag | 6% | 3% | u | -14%
D2 potentiator | -3 | 4 | 2 | 16
Six1-Eya2 blk | 0 | 1 | 7 | -2
D2 ag | -1.7 | 5.6 | 1.3 | 11
CtBP-E1A inh | -2 | 1 | x | x

Ordered by number of heavy atoms (low to high): part of the list above.
58: O=C(Nc1nccs1)c1cc([N+](=O)[O-])ccc1Cl
56: CC(/C=N/NC(=O)c1cc(-c2ccc(C)s2)[nH]n1)=C\c1ccccc1
53: Cc1ccc(Cn2ccc(NC(=O)c3noc4c3CCc3ccccc3-4)n2)cc1
Assay by compound | 58 | 56 | 53
gsp antagonist | -5% | 21% | 6%
gsp ag | -14% | 3% | 18%
D2 potentiator | 16 | 4 | 10
Six1-Eya2 blk | -2 | 1 | 10
D2 ag | 11 | 5.6 | -1.6
CtBP-E1A inh | x | 1 | 10

Source: PubChem BioAssay
